MT1-MMP act inh: inhibitors of human MT1-MMP activation; P50281; HT1080 RFP-PRO-GFP cells, GFP/RFP ratio fluorescence, overnight; percent of plate control window, DMSO zero; GFP/RFP ratio change, % at 20 µM; 360,000 tested, 0.061% active;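 active means GFP/RFP ratio change of at least 30% with cell ATP level not reduced by more than half and red fluorescence within 50% of control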; further: strong numbers were not always called active
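Assay system: HT1080 RFP-PRO-GFP cells. Benchmarks: DMSO vehicle wells and RFP-L50D-GFP reporter cell wells. Times: overnight cell settling, then overnight compound exposure, 37 °C, 5% CO2. Compound: 20 µM single dose, 1% DMSO. Read-out basis: GFP/RFP fluorescence ratio.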
UUG fidelity: alters start codon recognition fidelity in yeast; activity score, % at 18.7 µM; AID 602363; 350,000 tested, 0.13% active; S. cerevisiae UUG-firefly luciferase reporter, luminescence/redox ratio;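 active means replicate mean at a twofold rise or more, about +100% in these data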;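 further: firefly luciferase made from a UUG start codon reports start codon fidelity; reporter light over untreated wells divided by growth signal over untreated wells; some hits fall short of that in this replicate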
MT1-MMP act inh RFP: also measured in MT1-MMP act inh; calls as there; RFP signal change, %; measured here: RFP expression control read;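 0 = vehicle wells; hits needed this value within 50% of zero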
Active calls of the source: *; & = joins results of further samples. This is a subset; the hit share may differ from the screen's.

Structure	MT1-MMP act inh	MT1-MMP act inh RFP	UUG fidelity
COc1ccc(CCNC(=O)COC(=O)C2CC2C)cc1OC (stereo not drawn)	2.3	2.6	0.9
CCCCN1CCS(=O)(=O)N(Cc2ccccc2Br)CC(C(=O)OC)C1 (stereo not drawn)	-2.0	-7.0	-15.6
COc1cc(C(O)c2nc(/C=C/c3ccc(C(F)(F)F)cc3)cs2)ccc1F (stereo not drawn)	13.1	-8.2	-6.1
CCN1C(=O)[C@@H]2[C@@H]3CN(S(=O)(=O)c4ccc(C)cc4)[C@@H](c4ccccc4Cl)[C@@H]3C(=O)C[C@@H]2C1=O	-5.5	0.1	-8.8
COc1ccc(C(=O)O)cc1S(=O)(=O)NC(C)C12CC3CC(CC(C3)C1)C2 (stereo not drawn)	3.1	1.6	8.5
Cc1ccc([C@@H]2C[C@H]3[C@@H](CN2S(=O)(=O)c2ccc(C)cc2)C(=O)C[C@@H](c2ccccc2)N3S(=O)(=O)c2ccc(C)cc2)cc1	0.9	0.8	7.8
CC1(c2nc3ccccc3[nH]2)CCC(=O)N1Cc1ccc(F)cc1 (stereo not drawn)	4.4	6.4	-15.8
CCOC(=O)c1ccc(S(=O)(=O)N2CCN(C3CC(=O)N(c4ccc(OC)cc4)C3=O)CC2)cc1 (stereo not drawn)	-3.8	-0.9	-3.5
CCCCNC(=O)C1(C)CCN1C(=O)c1ccc(F)cc1Cl (stereo not drawn)	0.3	0.0	10.1
COC(=O)c1ccc(NC(=O)c2cccc(N3C(=O)CCC3=O)c2)cc1	-1.8	-1.5	-22.7
Cc1cc(F)ccc1-c1cc(C(=O)NCc2cc(C(F)(F)F)cc(C(F)(F)F)c2)[nH]n1	1.8	-1.8	-15.4
COc1cc(-c2coc3c(C(=O)Nc4ccc(C(C)C)cc4)cccc23)ccc1O	-1.1	-3.8	-3.6
COc1ccc(NC(=O)C[C@H]2C(=O)N(c3ccc(OC)cc3)C[C@@H]2CSC)cc1	0.3	2.5	-1.8
COc1ccc(C2CC(=O)c3c(O)cc(O)cc3O2)cc1O (stereo not drawn)	-0.2	-6.2	-5.4
C=CCn1c(SCC(=O)Nc2c(C)n(C)n(-c3ccccc3)c2=O)nc2ccccc2c1=O	-0.6	-0.5	-17.9
Cc1nn(-c2ccccc2)c2[nH]c(=O)cc(C(F)F)c12	2.2	0.9	1.9
CCOC(=O)C1(C)CCN1C(=O)Cc1ccc(OC)cc1 (stereo not drawn)	-1.0	4.2	-17.0
O=S(=O)(CCNC1CC1)NC1CCCCC1	3.3	3.0	-2.7
Cc1cccc(CN2[C@H](CO)C=CS2(=O)=O)c1	0.5	4.4	-11.7
CCCc1cc(C(=O)Nc2cccc(-c3nn[nH]n3)c2)sc1C	-1.0	1.9	-5.6
CC(C(=O)Nc1ccccc1C#N)N1C(=O)NC2(CCCCCC2)C1=O (stereo not drawn)	-0.1	0.0	-10.0
O=c1cc(-c2ccccc2)oc2cc(O)ccc12	-9.9	-0.3	-19.6
Cc1ccc(NC(=O)CSc2nnc(C3CC3)n2C)cc1S(=O)(=O)N1CCCCC1	5.2	-3.6	-3.4
Cc1ccc(C(=O)NCc2ccccc2CN2CCCC2)cc1S(=O)(=O)N1CCOCC1	0.9	1.5	-11.2
Nc1c(C(=O)CSc2ncccn2)c(=O)[nH]c(=O)n1C1CC1	-1.4	5.3	-14.3
O=C(OCC(=O)N1CCN(C(=O)COC(=O)c2ccccc2NCCO)CC1)c1ccccc1NCCO	-3.3	0.5	0.0
COc1ccc(Cl)cc1-c1cc(C(=O)N[C@H](C)c2ccccc2)[nH]n1	-3.8	-6.2	-25.4
CC(=O)NC[C@H]1O[C@@H](n2ccc(N)nc2=O)[C@H](O)[C@@H]1O	4.0	7.7	-15.0
CCCCc1ccc(CC(=O)Nc2cc(S(=O)(=O)N3CCOCC3)ccc2O)cc1	5.2	2.0	-13.2
CCCCn1c(N)c(N(CCOC)C(=O)CN2C(=O)C3CCCCC3C2=O)c(=O)[nH]c1=O (stereo not drawn)	-1.7	2.7	-1.2

Whole records as entered above. Screens in order: MT1-MMP act inh	MT1-MMP act inh RFP	UUG fidelity
Record of COc1ccc(NC(=O)C[C@H]2C(=O)N(c3ccc(OC)cc3)C[C@@H]2CSC)cc1 → 0.3	2.5	-1.8
Record of COc1ccc(Cl)cc1-c1cc(C(=O)N[C@H](C)c2ccccc2)[nH]n1 → -3.8	-6.2	-25.4
Record of Nc1c(C(=O)CSc2ncccn2)c(=O)[nH]c(=O)n1C1CC1 → -1.4	5.3	-14.3

Other structures:
Structure	MT1-MMP act inh	MT1-MMP act inh RFP	UUG fidelity
CC1(C)N=C(N)N=C(N)N1c1ccc(OCC(=O)N2CCOCC2)c(Cl)c1	-14.5	-5.1	-16.7
CCCC(=O)N1CCCC1(C)C(=O)Nc1ccc2nc(C)ccc2c1 (stereo not drawn)	-4.2	1.7	-18.5
COc1ccccc1NS(=O)(=O)c1ccc(C(=O)NCC(c2ccco2)N2CCCCC2)cc1 (stereo not drawn)	-2.5	1.8	-28.1
O=C(COC(=O)C1CC2CCCC(C1)C2=O)NC1CCCCC1 (stereo not drawn)	1.0	1.8	-4.1
COc1ccc(NC(=O)C[C@H]2C(=O)N(c3ccc(OC)cc3)C[C@@H]2c2ccc(Br)cc2)cc1	2.9	-1.1	-8.5
COc1cc(C(=O)OCC(=O)N2CCCC2)cc2c1OCCO2	-0.4	-0.4	-16.3
CCCS(=O)(=O)NC(=O)C1(C)CCN(C(=O)c2ccc3ccccc3c2)C1 (stereo not drawn)	0.3	2.2	-39.3
Cc1ccc(S(=O)(=O)N(C)c2ccc(OCC(=O)OCc3cccc(Br)c3)cc2)cc1	-0.7	0.1	-26.6
O=C1CC=Nc2ccc([N+](=O)[O-])cc21	-1.9	1.2	-0.9
Cc1ccc([C@H]2N[C@]3(CCCN(CC4CCCCC4)C3=O)[C@H]3C(=O)N(C)C(=O)[C@@H]23)cc1	-1.9	5.1	-5.9
CC(=O)c1ccc(S(=O)(=O)N2CCN(CC(=O)Nc3ccnn3C3CCCC3)CC2)cc1	0.0	-7.1	-9.8
CCC(Oc1ccccc1)C(=O)OCC(=O)Nc1sccc1C(N)=O (stereo not drawn)	5.5	-11.0	-3.0
Nc1cc(S(=O)(=O)N2CCCCC2)ccc1N1CCCCC1	-7.3	-18.6	5.0
Cc1cn(CC(=O)NCC(c2ccccc2)c2ccccc2)c(=O)[nH]c1=O	-3.8	-1.9	15.9
CN(C(=O)c1ccccc1C(=O)OCC(=O)Nc1cccc(Br)c1)c1ccccc1	9.7	-5.2	1.3
CCCCn1c(N)c(N(CC(C)C)C(=O)CSc2ccc3c(c2)OCCO3)c(=O)[nH]c1=O	0.5	1.3	-18.6
CCOC(=O)C1=CCN(S(=O)(=O)c2ccccc2Br)C1c1cccc(C)c1 (stereo not drawn)	-1.4	-5.4	-10.1
O=C(Nc1ccc(Cl)c(S(=O)(=O)N2CCCCC2)c1)c1ccncc1	1.1	-24.8	-19.2
Cc1noc(C)c1COc1ccccc1C(=O)N(C)CC(=O)Nc1ccc(F)c(F)c1F	-4.4	0.5	-7.0
CC1(C)NC(=O)N(CCCC(=O)Nc2ccc(C(F)(F)F)cc2)C1=O	5.0	1.5	-2.8
O=c1n(Cc2ccccc2)c(O)c2n1Cc1ccccc1N=C2c1ccc(C(F)(F)F)cc1	3.2	-3.5	-15.8
CC(C)C[C@@H](CN1CCC[C@@H]1CN1C(=S)NC[C@@H]1Cc1ccc(O)cc1)N1C[C@H](Cc2ccccc2)N(CCc2ccccc2)C1=S	-0.2	-2.1	7.5
COc1ccc(C(=O)OCC(=O)NCC2CCCO2)c(F)c1 (stereo not drawn)	-1.9	2.5	1.9
CN(Cc1ccc(C(C)(C)C)cc1)C(=O)c1ccc2c(c1)OCO2	-1.4	-2.0	-15.1
CC1(C(=O)NS(=O)(=O)c2cccs2)CCN1C(=O)CC1CC1 (stereo not drawn)	-4.7	2.1	-22.4
COc1ccc(CCC(=O)Nc2ccc(Cl)c(S(=O)(=O)N3CCOCC3)c2)cc1OC	-3.2	-30.7	-8.9
O=[N+]([O-])c1ccccc1N=NNc1ccccc1	2.5	2.9	-12.2
CC[C@]12c3[nH]c4ccc(OC)cc4c3CCN1C(=O)C(CC(=O)NCCN1CCOCC1)C[C@@H]2C(=O)N1CCN(C(=O)c2ccco2)CC1 (stereo partly drawn)	1.4	2.8	-15.9
Cc1ccc(-c2nn(-c3ccccc3)cc2C(=O)NC2CCC(O)CC2)cc1 (stereo not drawn)	-2.7	-2.2	-12.2
COc1ccccc1S(=O)(=O)N(C)C[C@@H]1OCc2cn(nn2)CCCC(=O)N([C@H](C)CO)C[C@H]1C	2.9	9.7	-5.6&-10.3
O=C(NC1=NCCS1)C1CCN(S(=O)(=O)c2ccccc2C(F)(F)F)CC1	1.2	1.8	-1.7
CCCN(C(=O)c1cc(S(=O)(=O)N(C)c2ccccc2OC)ccc1C)C1CCS(=O)(=O)C1 (stereo not drawn)	1.6	-1.5	-20.1
O=C(C[n+]1cccc(C(=O)N/N=C/c2ccc(Br)cc2)c1)c1ccccc1	-6.5	3.7	-17.9
CCCN(CC(=O)Nc1ccccc1C)C(=O)c1ccc(-c2ccc([N+](=O)[O-])cc2)o1	-2.1	-1.5	-7.1
COc1ccc(C(=O)C(=NN)c2ccccc2)cc1	-0.9	-2.1	-11.8
COc1ccc(S(=O)(=O)N2CCCCCC2)cc1NC(C)C(=O)Nc1ccc(NC(C)=O)cc1 (stereo not drawn)	0.9	0.0	-7.6
Cc1ccc(CN2CC(C(=O)N3CCN(c4ccccc4Cl)CC3)CC2=O)cc1 (stereo not drawn)	4.2	-6.7	6.0
CC[C@]12c3[nH]c4cc(-c5ccco5)ccc4c3CCN1C(=O)[C@@H](CC(=O)NCCCN(C)C)C[C@@H]2C(=O)N1CCN(C(=O)C2CC2)CC1	4.7	10.0	-0.3
Cn1nccc1-c1ccc(C(=O)Nc2cccc(NS(C)(=O)=O)c2)c2occc12	2.1	-4.0	-15.0
COCCCNC(=O)c1cccc2c(-c3ccc(OC)cc3C)coc12	-4.1	-21.3	5.8
CCCn1c(N)c(N(CCOC)C(=O)CSc2cc(C)c3ccccc3n2)c(=O)[nH]c1=O	-1.5	1.7	-16.5
S=C(NCCc1ccccc1)N1CCC2CC1c1c(Cl)cccc12 (stereo not drawn)	-0.9	-1.8	-12.2
Cc1cc(=O)n(-c2ccccc2)n1C	-1.5	6.9	-14.9
O=C(CN1CCN(Cc2ccccc2)CC1)NNC(=O)c1ccccc1	-2.2	1.7	-15.8
Cc1ccc(S(=O)(=O)Nc2ccc(-n3cnnn3)cc2)c(C)c1	5.7	-6.4	-1.2
CNC1(C(N)=O)CCN(Cc2ccccc2)CC1	-1.7	-1.6	-6.0
O=C(NCC1CCCO1)c1cc([N+](=O)[O-])ccc1N1CCC(Cc2ccccc2)CC1 (stereo not drawn)	1.1	-7.2	-15.2
CC(=O)Nc1sc(C)c(C)c1C(=O)OCC(=O)NCc1ccc(F)cc1	0.8	-2.0	-3.9
Cc1ccc(C)c(NC(=O)COC(=O)c2cc(=O)c3ccccc3o2)c1	-5.6	1.1	-17.0
COc1ccccc1-c1cccc(-c2nc(C(=O)N3CCCCC3)cc3c2[C@@H](CCO)N(S(=O)C(C)(C)C)C3)c1 (stereo partly drawn)	14.9	-4.5	21.7
O=C(c1ccc2c(c1)OCCO2)N1CCN(Cc2c(F)cccc2Cl)CC1	-1.3	0.7	-9.5
Cc1ccc(Cc2c(C(C)(C)C)nc3ccc(Br)cn23)cc1	-4.6	0.9	11.1
CC1CC(C)CN(S(=O)(=O)c2ccc3c(c2)CC(=O)N3)C1 (stereo not drawn)	-1.6	4.2	-8.5
CC(C)(C)NC(=O)C1(N2C(=O)c3ccccc3C2=O)CCCC1	-2.4	3.8	-5.9
CC(C)[C@@H]1CN=C(N)N1C[C@@H]1CCCN1C[C@H](C)N1C[C@@H](Cc2ccccc2)N(CCc2ccc(Cl)c(Cl)c2)C1=N	4.3	-0.8	-2.7
CCCCN(CC(=O)NC1CC1)S(=O)(=O)c1ccc(OCC)cc1	-2.3	1.6	-11.3
O=C(CN1C(=O)NC2(CCCCCCC2)C1=O)Nc1ccc(Cl)cc1	-2.8	1.6	-6.9

Looked up one by one from the entries so far:
Structure	MT1-MMP act inh	MT1-MMP act inh RFP	UUG fidelity
CC(C)[C@@H]1CN=C(N)N1C[C@@H]1CCCN1C[C@H](C)N1C[C@@H](Cc2ccccc2)N(CCc2ccc(Cl)c(Cl)c2)C1=N	4.3	-0.8	-2.7
O=C(NCC1CCCO1)c1cc([N+](=O)[O-])ccc1N1CCC(Cc2ccccc2)CC1 (stereo not drawn)	1.1	-7.2	-15.2
CC(C)(C)NC(=O)C1(N2C(=O)c3ccccc3C2=O)CCCC1	-2.4	3.8	-5.9
Cc1ccc(Cc2c(C(C)(C)C)nc3ccc(Br)cn23)cc1	-4.6	0.9	11.1
O=C(CN1C(=O)NC2(CCCCCCC2)C1=O)Nc1ccc(Cl)cc1	-2.8	1.6	-6.9
